Screening results from PubChem.
UCH37 inh: inhibitors of human UCH37 deubiquitinase, primary screen, biochemical, Ub-AMC cleavage, fluorescence. Ubiquitin carboxyl-terminal hydrolase isozyme L5 (Homo sapiens), Q9Y5K5. purified proteasome/UCH37. inhibition, % (test concentration not listed). hit rate 0.33% among 330,000;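 active = mean of two replicates above 20%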;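 note: 0% = compound-free wells with enzyme and 100% = wells lacking proteasome; stock transfer was 100 nL into about 20 µL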
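Material: Human UCH37 enzyme supplied as purified proteasome complex | Schedule: 30 min preincubation with enzyme, 25 min cleavage at room temperature | Detection: AMC fluorescence 355/460 nm | Measure: % inhibition of Ub-AMC cleavage fluorescence | Controls: Wells without proteasome as full block, compound-free enzyme plus substrate as uninhibited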
HNF4A DNA FP: change in binding of human HNF4A to DNA, primary screen, biochemical, fluorescence polarization, FITC-DNA; 1 h; activity change, % at 10 µM; hit rate 0.3% among 360,000; AID 1224865, 2016; in the data active = activity change above about 30%, passing the limit was not always enough;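 note: controls were the assay level and a saturating level of protein; the project sought stronger binding though the title names inhibitors; some compounds called inactive have numbers as strong as hits; positive values seem to mean higher polarization but the record does not say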
Target sequence (P41235 whole entry, looked up): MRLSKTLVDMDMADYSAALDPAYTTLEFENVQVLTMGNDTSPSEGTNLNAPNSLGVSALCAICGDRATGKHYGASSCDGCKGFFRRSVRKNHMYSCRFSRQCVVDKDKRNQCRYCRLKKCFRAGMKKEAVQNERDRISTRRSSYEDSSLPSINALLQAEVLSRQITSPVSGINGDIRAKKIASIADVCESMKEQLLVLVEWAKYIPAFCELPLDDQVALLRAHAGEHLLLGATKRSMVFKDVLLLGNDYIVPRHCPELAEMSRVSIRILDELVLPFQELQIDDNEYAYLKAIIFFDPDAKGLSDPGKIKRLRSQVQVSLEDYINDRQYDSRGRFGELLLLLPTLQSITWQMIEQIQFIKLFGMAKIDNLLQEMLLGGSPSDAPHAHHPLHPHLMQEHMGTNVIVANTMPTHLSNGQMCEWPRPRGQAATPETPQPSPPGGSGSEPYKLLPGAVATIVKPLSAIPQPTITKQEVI
Ecoli growth: E. coli growth inhibition, primary screen, OD600 | OD600 absorbance (test concentration not listed) | hit rate 0.21% among 330,000 | Escherichia coli growth, 23 h; hits give low values | AID 1053175, 2014;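 active = OD600 absorbance below the run mean of sample wells minus 3.6 SD, in any replicate, cut at about 0.56 in these data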;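 note: stock transfer was 300 nL into about 60 µL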
Bfl-1 A1 inh: caspase 3/7 activation in MEF A1-2A-BIM cells, primary screen, A1 inhibitor project, cell-based, luminescence, HTS; caspase activation, % (test concentration not listed); Caspase-Glo 3/7 luminescence, 3 h; percent of clofoctol response, vehicle zero; hit rate 0.066% among 330,000; AID 2462, 2010;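 active = over half of replicate activation scores above 10%, or exactly half above 10 with the replicate mean above 10; inconclusive = replicate mean below 10 yet half the replicates above 10; inactive = over half of replicates below 10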;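 note: wells of about 30 µL received 50 nL stock; many hits fall short of the cut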
Vif TR-FRET: inhibitors of Vif binding to APOBEC3G peptide, primary screen, biochemical, TR-FRET, GST-Vif 1-94, biotin-A3G peptide, dose response retest (AID 1117319) | Virion infectivity factor (Human immunodeficiency virus type 1 group M subtype B (isolate … | TR-FRET GST-Vif / biotin-A3G peptide binding; higher % means a stronger effect; test concentration not given here; strong numbers were not always called active | inhibition, %, or IC50 in µM where a hit was titrated | hit rate 0.57% among 260,000;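 active = above the screen mean plus three standard deviations and confirmed in dose response; inconclusive = results disagree or hit not tested in dose response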;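 note: Vif residues 1-94 fused to GST binding biotinylated APOBEC3G peptide 110-148; 0% = full assay without inhibitor and 100% = GST in place of GST-Vif; retest series ran down from 100 µM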
LANA-H2B inh: blockers of LANA interaction with H2A/H2B – biochemical, FP readout, HTS, primary screen. Protein LANA1 (Human herpesvirus 8 type P (isolate GK18)), Q9QR71. cell-free LANA-H2A/H2B peptide, fluorescence polarization. inhibition, % (no concentration beside the values). hit rate 0.6% among 320,000. AID 2629, 2010; in the data active = inhibition mostly above about 10%, no sharp cut-off; inactive = mostly below about 6.7%;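 note: stock transfer was 7.5 nL into about 10 µL; 0% = median of vehicle wells and 100% = median of positive control wells; one replicate is shown; the record names a cut of 25% in any replicate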
Beta2AR agonist: beta2AR agonists driving receptor internalization, primary screen, cell-based, FAP fluorogen, flow cytometry; Beta-2 adrenergic receptor (Homo sapiens), P07550; Am2.2-beta2AR cells; reference of the scale not given here; response, % (test concentration not listed); hit rate 0.43% among 340,000; AID 504454, 2011;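 active = response above a set limit, near 3 SD of response in nonfluorescent compounds, cut at about 42% in these data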;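 note: stock transfer was 100 nL into about 11 µL; a reference agonist was the positive control; negative values mostly stem from fluorescent compounds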
Target sequence (P07550 whole entry, looked up): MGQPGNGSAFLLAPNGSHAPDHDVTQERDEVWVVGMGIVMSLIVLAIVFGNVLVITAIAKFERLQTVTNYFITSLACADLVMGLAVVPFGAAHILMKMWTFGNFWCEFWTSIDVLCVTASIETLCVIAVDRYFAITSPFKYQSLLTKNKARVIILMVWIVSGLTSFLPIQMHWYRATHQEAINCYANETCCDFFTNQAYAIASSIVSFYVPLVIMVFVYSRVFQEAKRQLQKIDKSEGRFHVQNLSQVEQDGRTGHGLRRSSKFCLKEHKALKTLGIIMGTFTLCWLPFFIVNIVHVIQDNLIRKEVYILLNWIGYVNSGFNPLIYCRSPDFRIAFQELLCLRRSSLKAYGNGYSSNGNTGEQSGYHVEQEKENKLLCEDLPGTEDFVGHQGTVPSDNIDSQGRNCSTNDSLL
* hit, by the source's call; ? = inconclusive; / = no result given.

SMILES	UCH37 inh	HNF4A DNA FP	Ecoli growth	Bfl-1 A1 inh	Vif TR-FRET	LANA-H2B inh	Beta2AR agonist
Cc1ccc(NC(=O)CC2Oc3ccc(C)cc3NC2=O)cc1 (stereo not drawn)	-2.2	1.4	0.76	/	8%	/	9
COc1ccc(Oc2c(C=O)c3ccccc3n2C)cc1	-3.3	1.4	0.71	-0.3	1%	1.4	-5
C/C(=N\n1c(C)nc2ccccc2c1=O)c1ccc(C)o1	/	-2.6	/	-0.1	69%	1.1	-2
CCOc1ccc(C(=O)CCCC(=O)c2ccc(OCC)cc2)cc1	1.8	3.5	0.76	-1.4	/	-1.1	-1
Cc1cc(C)c(N2CCN(S(=O)(=O)N3CCCCCC3)CC2)c(C)c1	2.1	1.5	0.77	0.9	9%	-0.6	3
COCCNC(=O)c1ccc2c(c1)S(=O)(=O)c1cc(Cl)ccc1C2=O	0.7	-1.8	0.69	-1.0	/	-1.2	-3
Cc1onc(-c2ccccc2)c1C(=O)N1CCN(C/C=C/c2ccccc2)CC1	3.7	1.7	0.72	-0.2	2%	1.2	-5
Cc1nc2c(ccc3c2ccc2nc(C)sc23)s1	0.7	/	0.73	-0.8	1%	-0.4	/
CCc1noc(C)c1C(=O)N1CCN(S(=O)(=O)c2c(C)cc(C)cc2C)CC1	0.4	0.0	0.69	1.1	0%	-1.6	1
C=CCOc1ccc(C2NC(=S)NC(c3ccccc3)=C2C(C)=O)cc1OC (stereo not drawn)	8.0	3.2	0.72	-0.7	?	7.1	0
NC(CSC(c1ccccc1)(c1ccccc1)c1cccc2ccccc12)C(=O)O (stereo not drawn)	/	0.6	/	/	5%	/	4
CSCC[C@H](NC(=O)OC(C)(C)C)c1nnc(SCC(=O)N(C)C)o1	0.6	-2.6	0.78	-1.2	12%	0.6	-4
O=C(CCCNS(=O)(=O)c1ccc(Br)cc1)N1CC[C@@]2(O)CCCC[C@H]2C1	1.9	-0.4	0.75	0.5	-10%	-1.0	20
CC(C)C[C@H](N)c1cn([C@@H](Cc2ccc(O)cc2)C(=O)N2CCNCC2)nn1	-6.4	3.6	0.72	-0.3	7%	-0.6	-3
CCc1nnc(NS(=O)(=O)c2ccc(NC(=O)COc3ccc(Cl)c(C)c3)cc2)s1	1.5	-5.0	0.62	-0.7	/	-0.3	5
CCCCOc1ccc(C(=O)Nc2ccc(CN3CCOCC3)cc2)cc1	6.0	0.7	0.69	2.2	/	0.4	3
Cc1cc(=O)oc2cc(OCC(=O)N3CCCC(C)C3)ccc12 (stereo not drawn)	-6.6	1.1	0.69	-0.7	3%	-6.6	2
COc1ccc(N2CCN(C(c3cccs3)C(C)NC(=O)C(=O)N3CCCC3)CC2)cc1 (stereo not drawn)	-0.4	0.9	0.65	0.2	/	-1.0	4
N=c1sccn1CC(=O)Nc1ccccc1Sc1ccccc1	0.1	2.8	0.67	0.1	/	7.3	8
Cc1[nH]c(=O)[nH]c(=O)c1S(=O)(=O)N1CCCC(C(=O)N2CCN(c3ccccc3Cl)CC2)C1 (stereo not drawn)	1.9	0.2	0.71	0.8	25%	-3.1	4
COc1cc(-c2csc(N3CCOCC3)n2)cc(OC)c1OC	-1.5	1.2	0.73	0.1	2%	1.4	-4
Cc1cc(C)c2c(n1)SCC(=O)N2CC(=O)Nc1ccc(F)cc1	5.3	4.1	0.73	/	/	/	1
c1ccc2sc(-c3ccncc3)nc2c1	-1.0	-6.0	0.62	-4.8	-1%	9.4	-1
O=C1c2ccc(-c3ccc(F)cc3OCc3ccccc3)cc2S(=O)(=O)c2cccc(C(=O)N3CCCC3)c21	-1.5	-2.9	0.82	-0.4	/	-1.6	13
COC(=O)c1ccccc1NC(=O)CSc1ccccn1	1.2	4.9	0.71	-2.4	5%	-1.7	0

The results go on.
SMILES	UCH37 inh	HNF4A DNA FP	Ecoli growth	Bfl-1 A1 inh	Vif TR-FRET	LANA-H2B inh	Beta2AR agonist
COc1ccc(OC)c(NC(=O)CSc2nc(O)cc(=O)n2CC(C)C)c1	2.9	-0.1	0.73	2.6	1%	4.0	-5
COc1cccc(/C=N/NC(=O)CCn2cnc3ccccc32)c1	/	0.2	/	0.2	1%	-1.9	-5
CCOC(=O)c1c(C)sc2c1N(C(=O)CN(CC)CC)c1ccccc1S2	5.1	-2.6	0.71	0.3	11%	0.3	-6
COc1ccc(-n2c(=O)c3ccccc3n(CC(=O)Nc3cccc(OC)c3)c2=O)cc1	-0.9	1.3	0.73	0.6	-10%	1.6	0
O=C(NNS(=O)(=O)c1ccccc1F)c1cccc(S(=O)(=O)N2CCOCC2)c1	2.4	0.2	0.68	0.7	21%	-0.4	9
CC(=O)N1CCN(c2ccc(NC(=O)c3ccccc3Cl)cc2)CC1	/	-1.4	/	-0.3	27%	3.8	3
CCc1ccc(CN2CCN(c3ncccn3)CC2)cc1	-0.3	4.2	0.67	-0.5	/	2.0	2
Cc1ccccc1Cn1c2ccccc2c2cnn(CC(=O)N3CCN(c4ccccc4)CC3)c(=O)c21	/	2.2	/	/	-22%	/	-4
COc1ccccc1N1CCN(C(=O)C(C)N(c2ccc(C)cc2)S(C)(=O)=O)CC1 (stereo not drawn)	1.8	-3.2	0.7	-0.7	1%	1.8	11
COCCN(Cc1cc2ccc(C)cc2n2nnnc12)Cc1nnnn1C(C)(C)C	2.1	2.9	0.8	-0.8	-4%	3.7	-12
C=CCOc1ccc(Br)cc1/C=C1\NC(=S)N(C(C)=O)C1=O	-9.7	3.8	0.68	0.6	/	-10	-3
COC(=O)c1ccc(CNC(=O)c2ccc(S(=O)(=O)N3CCCC(C)C3)cc2)cc1 (stereo not drawn)	3.8	-1.0	0.68	0.3	-7%	2.6	5
COC(=O)C1C2C=CC3(CN(C(C)C)C(=O)C13)O2 (stereo not drawn)	3.6	2.1	0.7	0.0	2%	-0.2	-2
Cc1noc(C)c1NC(=O)N(C)C[C@H]1Oc2ccc(NC(=O)Cc3ccccc3)cc2C(=O)N([C@H](C)CO)C[C@@H]1C	4.3	-3.6	/	-0.2	/	-8.8	6
CC(C)(C)[C@H]1C=C(C(=O)NCc2ccccc2)O[C@@H](OCc2ccc(CO)cc2)C1	-0.4	-2.0	/	-0.6	0%	5.5	-10
O=C(NCc1ccco1)C1CCN(C(=O)c2ccc(Cl)cc2Cl)CC1	-1.1	1.1	0.64	0.2	/	1.7	0
CCCC1S/C(=N/N=C/c2ccco2)NC1=O (stereo not drawn)	/	-2.5	/	0.8	/	2.9	0
O=C(O)Cc1ccc(NC(=O)c2cccc(NC(=O)c3ccco3)c2)cc1	1.7	-0.4	0.68	-0.2	-4%	-2.2	-1
Nc1ccc(S(=O)(=O)Nc2nccc(/C=C/c3ccc(Cl)cc3)n2)cc1	1.8	0.8	0.66	0.3	/	-0.6	9
O=C(CCN1CCN(c2ccccc2)CC1)Nc1cccc(Br)c1	1.7	3.0	0.66	0.1	4%	-11	-7
O=C(c1ccccc1F)N1CCN(C(=O)C2CC2)CC1	/	4.6	/	0.8	-1%	-8.4	-7
O=C(Cc1ccccc1)N1CCCC(c2nc(-c3ccc(S(=O)(=O)N4CCCC4)cc3)no2)C1 (stereo not drawn)	1.4	-2.3	0.7	0.1	0%	1.2	5
COc1ccc(C(=O)C[N+]2(C)CCOCC2)cc1	4.0	0.5	0.7	0.1	5%	-4.8	1
CCOC(=O)N1CCN(C(=O)c2ccccc2SCC(=O)NCC2CCCCC2)CC1	-3.1	-3.2	0.65	-0.3	-1%	-2.7	-1
Cn1c(-c2cccc(Br)c2)n[nH]c1=O	0.6	3.5	0.69	0.3	-4%	-1.9	3

Next section (3 carried over from the part before).
SMILES	UCH37 inh	HNF4A DNA FP	Ecoli growth	Bfl-1 A1 inh	Vif TR-FRET	LANA-H2B inh	Beta2AR agonist
COc1ccc(C(=O)C[N+]2(C)CCOCC2)cc1	4.0	0.5	0.7	0.1	5%	-4.8	1
CCOC(=O)N1CCN(C(=O)c2ccccc2SCC(=O)NCC2CCCCC2)CC1	-3.1	-3.2	0.65	-0.3	-1%	-2.7	-1
Cn1c(-c2cccc(Br)c2)n[nH]c1=O	0.6	3.5	0.69	0.3	-4%	-1.9	3
O=C(NCC1CC1)NC(=O)c1c(F)cccc1Cl	2.8	2.1	0.68	0.6	/	-3.7	7
COc1ccc(NC(=O)c2ccc(F)cc2)cc1S(=O)(=O)Nc1cc(C)ccc1Br	2.6	-1.0	0.71	-0.5	?	-2.9	-12
Cn1c(C(=O)NC2CCCCCC2)cc2c(=O)n(C)c3ccccc3c21	0.0	-1.1	0.79	-0.2	-18%	-2.3	1
Cc1ccc(NC(=O)CSc2nnc(CN3CCOCC3)n2C)cc1C	5.6	-0.5	0.72	0.3	-10%	-4.6	11
COc1ccc(C(O)c2coc3ccc(O)c(CN(C)C)c23)cc1 (stereo not drawn)	3.4	0.3	0.69	-0.2	?	3.2	-8
COC(=O)CCN(Cc1cc(OC)ccc1OC)S(=O)(=O)c1ccccc1Br	-3.2	-1.9	0.69	/	-1%	/	4
CN(C(=O)c1ccc(NC(=O)Cc2ccc(NC(=O)C3CCN(C(=O)CCc4ccccc4)CC3)cc2)cc1)C1CCCC1	-0.3	4.4	0.69	/	1%	/	4
CCOC(=O)CC[C@H](NC(=O)Cn1cnc2c(SC)nc(N)nc21)C(=O)OCC	-0.5	-2.4	0.68	0.5	-4%	-5.1	12
CSCC(C)N1CCC(n2nccc2NC(=O)CCCc2ccccc2)CC1 (stereo not drawn)	/	-24	/	-0.9	/	4.4	9
Cc1ccc(NC(=O)COC(=O)CCc2ccc(S(=O)(=O)N3CCOCC3)cc2)c(C)c1	-0.3	-3.6	0.7	0.0	19%	-1.8	0
COc1ccc(/C=C2\NC(=S)N(CC3CCCO3)C2=O)c(OC)c1 (stereo not drawn)	5.5	2.5	0.69	-0.5	3%	3.9	-5
CC1C(=O)CC(c2ccccc2)NC1c1ccccc1 (stereo not drawn)	4.7	1.0	0.69	-0.3	8%	10	-6
O=C(CO)N/N=C/c1ccccc1F	/	0.0	/	0.4	0%	-1.6	-3
CCOC(=O)N1CCN(C(=O)Cn2cc3c(n2)CCCC3)CC1	-2.8	-0.5	0.73	-0.2	8%	-2.2	-2
CC(NC(=O)c1cccc(S(=O)(=O)N2CCN(Cc3ccccc3)CC2)c1)c1ccc(Cl)cc1 (stereo not drawn)	-0.5	3.8	0.69	/	4%	/	3
CCCC(=O)OCCNc1cc(SCc2ccco2)c2nonc2c1[N+](=O)[O-]	8.2	1.0	0.68	-0.2	?	1.4	64*
CCCC1CCc2c(c3ccccc3[nH]c2=O)O1 (stereo not drawn)	4.2	-2.1	0.69	-0.6	0%	-2.1	-5
COc1ccc(NC(=O)c2sc3ncnc(N4CCN(c5ccccn5)CC4)c3c2C)cc1Cl	5.2	6.7	0.68	1.0	/	-1.3	22
CN(Cc1ccc(F)cc1)C(=O)CN1C(=O)c2ccccc2S1(=O)=O	0.3	-1.8	0.69	0.0	-8%	-4.0	3
CC1=CC(c2ccccc2)n2ncnc2N1 (stereo not drawn)	-4.1	1.9	0.71	-0.1	/	-1.7	0
